# From PubChem BioAssay
# rRNA inh HTS = reduced GFP signal of wild-type E. coli, primary screen, bacterial rRNA inhibitor project, GFP/RFP fluorescence, OD600, single point. E. coli WT GFP vs humanized-ribosome RFP mutants, 24 h; hits give low values; DMSO median 0, no signal -100. GFP signal change (wild-type ribosome), % (test concentration not listed). actives 1.6% (n = 350,000). AID 720706, 2013;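 active means significant combined selectivity score with lowered wild-type GFP, culture density cut under 30%, mutant RFP and density less affected; inactive means any of these conditions unmet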; further: one replicate is shown; some compounds called inactive have numbers as strong as hits
# T cruzi inh = inhibitors of intracellular T. cruzi growth, primary screen, luminescence, NIH3T3 host cells; T. cruzi beta-gal in NIH3T3, 90 h; actives 1.4% (n = 300,000); inhibition, % (no concentration beside the values);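 active means mean inhibition across valid replicates above about 55%, limit read from the data; inconclusive means mean below that limit but half or more replicates reach it; inactive means mean below it, under half of replicates reach it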;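 further: signal also drops with host cell toxicity which is not excluded here; 0% = plate median of DMSO wells and 100% = zero luminescence signal; higher percent means less beta-gal luminescence so fewer parasites; stock transfer was 50 nL into about 50 µL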
# UCH37 DUB inh = inhibitors of human UCH37 deubiquitinase, primary screen, biochemical, Ub-AMC cleavage, fluorescence; inhibition, % (test concentration not listed); Ubiquitin carboxyl-terminal hydrolase isozyme L5 (Homo sapiens), Q9Y5K5; purified proteasome/UCH37; AID 588478, 2011; actives 0.33% (n = 330,000);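 active means mean of two replicates above 20%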;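 further: 0% = compound-free wells with enzyme and 100% = wells lacking proteasome; stock transfer was 100 nL into about 20 µL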
# Target sequence (Q9Y5K5 whole entry, looked up): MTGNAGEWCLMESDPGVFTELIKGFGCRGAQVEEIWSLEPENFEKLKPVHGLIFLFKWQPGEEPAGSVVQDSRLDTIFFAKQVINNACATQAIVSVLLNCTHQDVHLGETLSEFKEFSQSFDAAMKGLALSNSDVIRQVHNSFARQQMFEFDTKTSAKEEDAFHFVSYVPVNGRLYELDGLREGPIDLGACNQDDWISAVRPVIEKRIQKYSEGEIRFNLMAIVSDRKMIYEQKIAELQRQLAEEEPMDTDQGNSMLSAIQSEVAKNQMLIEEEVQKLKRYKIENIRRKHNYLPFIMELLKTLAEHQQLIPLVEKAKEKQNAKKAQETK
#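 Reagent: Ub-AMC substrate; assay system: Proteasome-associated human UCH37 deubiquitinase; controls: no-proteasome and no-compound wells; read-out: % inhibition of Ub-AMC cleavage fluorescence; timing: 30 min preincubation with enzyme, 25 min cleavage at room temperature; signal: AMC fluorescence from Ub-AMC cleavage, excitation 355 nm, emission 460 nm; buffer or medium: Tris-HCl pH 7.4 plus ovalbumin, ATP-MgCl2, DTT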
# Beta cell apopt = inhibitors of cytokine-induced beta cell apoptosis, primary screen, luminescence. INS-1E cytokine-induced death, ATP luminescence, 48 h; percent of positive-control rescue, neutral wells zero. protection from apoptosis, % (concentration not given with the values). actives 0.8% (n = 300,000). AID 435005, 2010;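 active means all replicates at 75% or more, or half of them and the mean; inconclusive means half reach 75% but not the mean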;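 further: 0% = cytokine-treated negative control wells and 100% = positive control rescue; higher means more ATP so stronger rescue from cytokine killing; wells of about 40 µL received 100 nL stock; the first replicate is given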
# E coli growth = E. coli growth inhibition, primary screen, OD600; Escherichia coli growth, 23 h; hits give low values; OD600 absorbance (concentration not given with the values); actives 0.21% (n = 330,000); AID 1053175, 2014;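 active means OD600 absorbance below the run mean of sample wells minus 3.6 SD, in any replicate, cut at about 0.56 in these data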;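 further: stock transfer was 300 nL into about 60 µL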
# MLL AF4-AF9 inh = inhibitors of AF4 peptide binding to AF9, primary screen, biochemical, AlphaScreen, biotin-AF4 peptide, FLAG-AF9, single point | actives 0.47% (n = 350,000) | Protein AF-9 (Homo sapiens), P42568 | inhibition, % at 10 µM;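 active means every replicate reaching a set inhibition limit, whatever the replicate mean, cut at about 25% in these data; inconclusive means mean inhibition reaches that limit but some replicates miss it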;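 further: 0% = plate neutral control median and 100% = total signal loss; the record names both 10 and 1 µM as test concentration; the first replicate is given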
# Target sequence (P42568 whole entry, looked up): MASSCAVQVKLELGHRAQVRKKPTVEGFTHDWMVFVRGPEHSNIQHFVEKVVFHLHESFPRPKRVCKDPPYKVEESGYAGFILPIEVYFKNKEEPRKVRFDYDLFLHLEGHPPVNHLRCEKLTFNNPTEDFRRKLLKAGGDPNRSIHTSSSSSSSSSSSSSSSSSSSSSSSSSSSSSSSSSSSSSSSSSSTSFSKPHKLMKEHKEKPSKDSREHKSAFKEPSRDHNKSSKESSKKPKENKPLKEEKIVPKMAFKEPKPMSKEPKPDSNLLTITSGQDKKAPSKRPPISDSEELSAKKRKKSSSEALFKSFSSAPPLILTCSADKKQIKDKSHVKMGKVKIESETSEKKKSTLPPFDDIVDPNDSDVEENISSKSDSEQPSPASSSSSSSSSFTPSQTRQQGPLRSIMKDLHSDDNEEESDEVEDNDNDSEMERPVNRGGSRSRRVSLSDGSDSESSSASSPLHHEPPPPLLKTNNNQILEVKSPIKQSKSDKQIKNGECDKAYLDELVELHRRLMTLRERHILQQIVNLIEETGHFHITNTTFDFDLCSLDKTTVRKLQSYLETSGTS
# FGF22 binding = binders of human FGF22 protein, primary screen, FGF22 synaptogenesis inhibitor project, biophysical, thermal shift, single point; actives 1.5% (n = 340,000); recombinant FGF22 thermal shift, SYPRO orange fluorescence; percent of sucrose octasulfate shift, DMSO zero; calls only at 9.99 µM;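 active means melting point raised past a set limit in the mean and every replicate; inconclusive means no clear call; three in four hits are not shown here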
# Target sequence (Q9HCT0 whole entry, looked up): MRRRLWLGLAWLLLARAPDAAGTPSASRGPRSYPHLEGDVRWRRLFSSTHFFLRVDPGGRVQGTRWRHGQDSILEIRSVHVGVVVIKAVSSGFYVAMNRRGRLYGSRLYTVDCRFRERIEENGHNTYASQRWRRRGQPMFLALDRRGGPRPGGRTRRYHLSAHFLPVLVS
# A1 inh = caspase 3/7 activation in MEF A1-2A-BIM cells, primary screen, A1 inhibitor project, cell-based, luminescence, HTS; Caspase-Glo 3/7 luminescence, 3 h; percent of clofoctol response, vehicle zero; caspase activation, % (test concentration not listed); actives 0.066% (n = 330,000); AID 2462, 2010;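 active means over half of replicate activation scores above 10%, or exactly half above 10 with the replicate mean above 10; inconclusive means replicate mean below 10 yet half the replicates above 10; inactive means over half of replicates below 10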;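 further: wells of about 30 µL received 50 nL stock; many hits fall short of the cut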
# rRNA inh HTS OD600 = recorded beside rRNA inh HTS, whose call it bears; OD600 change, %; measured here: OD600 growth;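 optical density of the mix in the first replicate; 0 = DMSO median and -100 = no signal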
# rRNA inh HTS RFP = second read-out of rRNA inh HTS, no call of its own (marks repeat the call); RFP signal change, %; measured here: RFP humanized mutant strains;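 first replicate; 0 = DMSO median and -100 = no signal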
# Starred values were filed as active, the others as inactive; i = inactive; ? = inconclusive; . = no result given; & = joins results of further samples. This is a subset, so the mix of outcomes need not match the whole.
SMILES,rRNA inh HTS,rRNA inh HTS OD600,rRNA inh HTS RFP,T cruzi inh,UCH37 DUB inh,Beta cell apopt,E coli growth,MLL AF4-AF9 inh,FGF22 binding,A1 inh
COc1ccccc1C1=NOC(COC(=O)c2ccc3ccccc3n2)C1 (centres undefined),.,.,.,-1,1.8,-4,0.69,.,.,-0.2
O=C(Cc1ccc(-n2c(=O)[nH]c3ccccc3c2=O)cc1)N1CCN(c2cccc(Cl)c2)CC1,.,.,.,24,3.1,15,0.68,.,.,-0.5
Cc1cc2c(c(SCC(=O)N(C)c3ccccc3)n1)C(=O)OC2,.,.,.,1,3.3,-5,0.68,.,.,-0.3
COc1ccc(CCNC(=O)C(=O)Nc2nccs2)cc1OC,.,.,.,-12,2.1,-5,0.74,.,.,0.1
CN1CCN(S(=O)(=O)c2cccc(C(=O)Nc3nccs3)c2)CC1,9,5,-0.2,-2,4.8,-7,0.67,1.5,i,-0.2
Cn1c(SCC(=O)NNC(=O)c2ccc(Br)cc2)nnc1-c1cccnc1,5,0,3.2,-9,1.3,-2,0.67,-0.2,i,?
COc1ccccc1N(CC(=O)NCCN1CCOCC1)S(=O)(=O)c1ccccc1,5,7,-4.3,-8,-0.8,-6,0.7,-0.6,i,0.0
CCc1cccc(CC)c1NC(=O)COC(=O)c1ccccc1-c1nc2ccccc2s1,17,17,-3.3,7,1.6,9,0.7,11,i,0.4
CC(=O)c1ccc(NC(=O)C2CCCC2)cc1,15,16,0.6,0,2.2,.,0.65,-5.1,i,-0.1
COc1ccc(C(=O)CC(=O)O)c2c1C=CC(C)(C)O2,.,.,.,-8,-23,-7,0.69,.,.,0.9
Cc1c(CCC(=O)N2CCC(C(=O)O)(c3ccccc3)CC2)c(=O)oc2cc3oc4c(c3cc12)CCCC4,.,.,.,6,-69,0,0.79,-1.7,i,0.1
CCOCCCNC(=O)CCNC(=O)c1cc(OC)c(OC)c(OC)c1,.,.,.,-2,5.1,1,0.76,.,.,0.4
O=C(O)C1C2C=CC(C2)C1C(=O)NCc1cccnc1 (centres undefined),.,.,.,1,3.5,-2,0.66,.,.,-0.1
COC(=O)c1cc(CNC(=O)CC(C)c2ccccc2)ccc1OC (centres undefined),5,3,-1.4,-7,1.7,.,0.71,-4.4,i,3.1
CCOC(=O)c1c(C)nc2sc3c(=O)n(-c4ccc(C(C)=O)cc4)cnc3c2c1-c1ccc(Cl)cc1,.,.,.,42,-9.5,12,0.73,.,.,0.3
O=C(CCCNC(=O)c1ccc(Cl)cc1)OCc1cccc(Br)c1,-26,-43,3.0,-8,-0.6,1,0.6,-1.4,i,0.0
COc1ccc(C/C(N)=N/OC(=O)Cc2ccccc2)cc1OC,.,.,.,-8,6.5,1,.,.,.,0.1
O=[N+]([O-])c1ccc2c(c1)S(=O)c1ccccc1-2 (centres undefined),-23*,-10*,-2.8*,5,6.4,-1,0.67,-0.8,i,-0.7
O=C1CN(S(=O)(=O)c2ccc(Br)cc2)c2ccccc2N1,-51,-70,-11,0,9.7,-2,0.74,-0.3,i,0.0
Cc1cc(=O)oc2c3c4c(cc12)OCCN4CCC3,.,.,.,5,i,-3,0.67,.,.,0.6

# Full records as entered above. Order of values: rRNA inh HTS	rRNA inh HTS OD600	rRNA inh HTS RFP	T cruzi inh	UCH37 DUB inh	Beta cell apopt	E coli growth	MLL AF4-AF9 inh	FGF22 binding	A1 inh
# O=C(Cc1ccc(-n2c(=O)[nH]c3ccccc3c2=O)cc1)N1CCN(c2cccc(Cl)c2)CC1 across the screens: .	.	.	24	3.1	15	0.68	.	.	-0.5
# O=C(O)C1C2C=CC(C2)C1C(=O)NCc1cccnc1 (centres undefined) across the screens: .	.	.	1	3.5	-2	0.66	.	.	-0.1

# (cont.)
SMILES,rRNA inh HTS,rRNA inh HTS OD600,rRNA inh HTS RFP,T cruzi inh,UCH37 DUB inh,Beta cell apopt,E coli growth,MLL AF4-AF9 inh,FGF22 binding,A1 inh
COc1nnc(-c2ccc(C)c(S(=O)(=O)NCC3CCCO3)c2)c2ccccc12 (centres undefined),-13,-23,-1.5,-34,0.1,2,0.7,0.7,i,0.2
Cc1ccccc1CNC1CCCCC1,.,.,.,-13,2.7,0,0.7,.,.,0.1
Cc1cccnc1NC1OC(=O)c2ccccc21 (centres undefined),.,.,.,9,0.4,-13,0.7,.,.,0.4
O=C(Cc1cccc(NC(=O)C2CCCN(C(=O)C3CCCC3)C2)c1)Nc1ccc(C(=O)N2CCCCC2)cc1 (centres undefined),-1,-6,-1.5,.,2.9,.,0.68,3.1,i,.
Cc1ccc(S(=O)(=O)Cc2cccc(C(=O)N3CCOCC3)c2)cc1,.,.,.,-8,-0.2,-4,0.76,.,.,0.4
Cc1ccc(-c2c[n+](CC(=O)Nc3nc(-c4ccc(F)cc4)cs3)c3n2CCC3)cc1,-59,-83,-32,-32,8.5,23,0.59,17,i,-0.2
CCC(C)NC(=O)c1cc2cc3ccc(OC)cc3nc2s1 (centres undefined),.,.,.,-6,i,.,0.68,.,.,-7.5
CCCCCCCc1ccc(C2NC(=S)NC3=C2C(=O)c2ccccc23)cc1 (centres undefined),.,.,.,-1,4.9,-1,0.71,.,.,0.5
COc1ccc(CCNC(=O)[C@@H](NC(N)=O)C(C)C)cc1,26,16,1.2,-18,-0.7,-5,0.63,-1.9,i,-1.1
Cn1ccnc1SCCNC(=O)CCc1nnc(CCc2ccccc2)o1,-2,4,-3.4,-9,2.2,-5,0.72,-1.6,i,0.2
CN1/C(=C\C(=O)C[n+]2ccc3ccccc3c2)C(C)(C)c2ccccc21,-52,-62,2.5,61*,14,.,0.72,2.2,.,.
CCOc1cccc2sc(N(CCN(CC)CC)C(=O)c3ccc(S(=O)(=O)N4CCCCC4)cc3)nc12,-4,4,-0.8,23,6.2,5,0.69,-2.5,i,0.1
Cc1ccc2[nH]c(=O)c(CN(CC3CCCO3)C(=S)NCc3ccco3)cc2c1 (centres undefined),.,.,.,1,4.1,-5,0.66,.,.,1.0
Clc1ccc(CN=C2Nc3ccccc3CS2)cc1,.,.,.,16,1.2,3,0.66,.,.,-2.9
CCCCn1c(CCC(=O)O)nc2cc(S(=O)(=O)N3CCCC3)ccc21,3,1,-0.3,.,2.5,1,0.65,2.5,i,0.0
COc1ccc(NC(=O)CN(C)C(=O)c2cccc(S(=O)(=O)N3CC4(C)CC3CC(C)(C)C4)c2)cc1 (centres undefined),-2,5,-0.7,6,0.3,-19,0.62,-0.3,i,0.0
c1ccc2sc(-c3ccc4c(c3)OCO4)nc2c1,.,.,.,.,-104,21,0.62,.,.,-8.3
CN(C)c1ccc(C2Nc3ccccc3C(=O)N2NS(C)(=O)=O)cc1 (centres undefined),10,7,-2.0,-13,-1.5,-6,0.67,0.9,i,-0.4
CC1S/C(=N/N=C2CCCCC2)NC1=O (centres undefined),.,.,.,-9,0.9,-18,0.71,1.2,i,0.3
CCn1c(=O)c(C(=O)NNC(=O)c2cccc(Cl)c2)c(O)c2ccccc21,4,1,-1.0,-2,-14,11,0.69,0.0,i,0.3
Nc1ccccc1C#Cc1ccc2[nH]ccc2c1,.,.,.,-1,-2.9,0,0.66,8.1,i,0.1
CS(=O)(=O)c1ccc(-c2cccc(NC(=O)COc3ccccc3)c2)nn1,6,8,-1.6,-5,3.1,-5,0.66,-2.3,i,1.1
Cn1c(N)c(C(=O)NCc2ccccc2)sc1=S,.,.,.,-7,7.0,-2,0.68,.,.,-0.4
CC(O/N=C(\N)c1ccccc1)C(=O)Nc1cccc(C(F)(F)F)c1 (centres undefined),0,1,5.7,.,2.3,0,0.7,3.0,.,0.3
CCOC(=O)NC(NCc1cccc(C(F)(F)F)c1)(C(F)(F)F)C(F)(F)F,8,-2,0.2,3,2.1,-1,0.66,-1.1,i,0.8
Cn1c(C(C(=O)NCC2CCCO2)N(C(=O)Cn2nnc3ccccc32)C2CCCCC2)nc2ccccc21 (centres undefined),.,.,.,2,-1.0,-4,0.73,.,.,-0.6
CC(C)C1=NN(C(=O)c2ccccc2)C(O)(C(C)(C)C)C1 (centres undefined),14,18,2.1,-13,2.8,-3,0.69,6.2,i,-0.3
O=C(NCc1ccccc1)C1=C[C@H](C2CC2)C[C@H](OCCCCO)O1,-1,-2,-8.4,-2,3.2,5,.,-1.3&-2.9,i,0.0
COCCc1nnc(NC(=O)C(C)C)s1,-2,-14,-3.2,-9,0.8,-8,0.66,0.3,i,1.5
COc1ccc(N(CC(=O)Nc2cc(C)ccc2OC)S(=O)(=O)c2c(C)noc2C)cc1,.,.,.,33,3.3,28,0.72,.,.,0.6
Cc1ccc(Oc2nc(CN3CCOCC3)nc3sc4c(c23)CCC(C)C4)cc1 (centres undefined),.,.,.,9,0.2,-9,0.65,.,.,-0.5
Cc1nc(CSc2ccccc2)cc(=O)[nH]1,-6,-9,-0.6,-12,0.8,-1,0.7,-3.3,i,0.1
COC(=O)/C(=C\Nc1ccccc1N)c1ncc(C(F)(F)F)cc1Cl,.,.,.,-9,-23,1,0.78,.,.,0.0
CN1CCN(S(=O)(=O)c2cccc(C(=O)Nc3sc4c(c3C(N)=O)CCCC4)c2)CC1,.,.,.,20,-29,0,0.73,.,.,-0.5
CCN(CC)CCNC(=O)c1cccc(NC(=O)C(=O)c2cc(Br)ccc2NC(C)=O)c1,5,0,6.3,-5,7.2,-1,0.69,7.5,i,0.1
C=CCc1c(C)nc(-c2ccccc2)nc1Nc1ccc(O)cc1,.,.,.,-1,2.4,-7,0.65,.,.,-0.1
Cc1ccc(NC(=O)CCN2CCc3ccccc3C2)cc1,.,.,.,-14,6.6,-4,0.66,.,.,0.6
CC12CCCc3c(O)cc(=O)n(c31)-c1ccccc12 (centres undefined),.,.,.,-15,0.0,-2,0.66,.,.,-0.8
CCCS(=O)(=O)N1CCN(C(=O)c2cccc(OC)c2)CC1,.,.,.,-7,1.3,1,0.67,.,.,-0.1
CN(c1ccccc1)S(=O)(=O)c1ccccc1Br,-38*,-20*,-4.3*,.,.,-5,.,0.1,i,-0.2
CCN(c1ccc(C)cc1C)S(=O)(=O)c1nnc(NC(=O)c2ccco2)s1,-3,-13,1.9,-26,5.5,-1,0.73,-4.0,i,-1.4
C/C(N)=C(/C#N)C(=O)CSc1nc2scc(-c3ccccc3)c2c(=O)n1C,5,11,0.7,27,0.1,-3,0.66,2.8,i,-0.7
CCOC(=O)c1cc(-c2ccc(N3CCOCC3)cc2)nn1-c1ccccc1,-14,-19,15,-23,-3.3,-1,0.69,5.5,i,1.2
